FGF22 binding: shifts melting point of recombinant human FGF22. Q9HCT0. recombinant FGF22 thermal shift, SYPRO orange fluorescence; percent of sucrose octasulfate shift, DMSO zero. calls only at 9.99 µM. actives 1.5% (n = 340,000);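 active means melting point raised past a set limit in the mean and every replicate; inconclusive means no clear call; three in four hits are not shown here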
Target sequence (Q9HCT0 whole entry, looked up): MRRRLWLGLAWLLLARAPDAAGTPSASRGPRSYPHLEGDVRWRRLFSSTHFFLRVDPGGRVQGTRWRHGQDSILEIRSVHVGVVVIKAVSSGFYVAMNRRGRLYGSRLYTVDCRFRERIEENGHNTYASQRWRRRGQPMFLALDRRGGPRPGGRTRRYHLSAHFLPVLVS
UCH37 inh: human UCH37 deubiquitinating enzyme inhibition; AID 588478; Q9Y5K5; purified proteasome/UCH37, Ub-AMC cleavage fluorescence; inhibition, % (test concentration not listed); actives 0.33% (n = 330,000);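 active means mean of two replicates above 20%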;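 further: 0% = compound-free wells with enzyme and 100% = wells lacking proteasome; stock transfer was 100 nL into about 20 µL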
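assay system = human UCH37 enzyme supplied as purified proteasome complex | amount = proteasome at 0.15 nM in the dispensed enzyme solution | schedule = 30 min compound-proteasome preincubation then 25 min substrate reaction, room temperature | measured by = fluorescence, ex 355 nm, em 460 nm | benchmarks = no-proteasome wells (full inhibition) and compound-free wells (no inhibition)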
Beta2AR agonist: human beta-2 adrenergic receptor agonism by FAP; Am2.2-beta2AR cells, FAP receptor internalization, flow cytometry; reference of the scale not given here; AID 504454; response, % (concentration not given with the values); actives 0.43% (n = 340,000);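 active means response above a set limit, near 3 SD of response in nonfluorescent compounds, cut at about 42% in these data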;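 further: stock transfer was 100 nL into about 11 µL; a reference agonist was the positive control; negative values mostly stem from fluorescent compounds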
Target sequence (P07550 whole entry, looked up): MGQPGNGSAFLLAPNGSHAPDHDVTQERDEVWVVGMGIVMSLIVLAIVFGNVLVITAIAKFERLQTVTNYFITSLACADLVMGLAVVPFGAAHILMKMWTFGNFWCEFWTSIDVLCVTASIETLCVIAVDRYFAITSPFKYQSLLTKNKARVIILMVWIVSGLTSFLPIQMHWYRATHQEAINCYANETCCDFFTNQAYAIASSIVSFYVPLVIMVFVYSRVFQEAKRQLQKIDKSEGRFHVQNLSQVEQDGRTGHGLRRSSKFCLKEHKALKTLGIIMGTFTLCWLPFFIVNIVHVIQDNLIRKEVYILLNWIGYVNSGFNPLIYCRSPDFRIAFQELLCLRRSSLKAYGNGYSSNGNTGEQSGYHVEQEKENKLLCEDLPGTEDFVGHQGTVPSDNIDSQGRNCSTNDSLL
E coli growth: E. coli growth inhibition. Escherichia coli growth, OD600, 23 h; active compounds read low. OD600 absorbance (concentration not given with the values). actives 0.21% (n = 330,000);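 active means OD600 absorbance below the run mean of sample wells minus 3.6 SD, in any replicate, cut at about 0.56 in these data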;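 further: stock transfer was 300 nL into about 60 µL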
LANA-H2B inh: blocks KSHV LANA binding to histone H2A/H2B; inhibition, % (test concentration not listed); actives 0.6% (n = 320,000); Q9QR71; cell-free LANA-H2A/H2B peptide, fluorescence polarization; in the data active means inhibition mostly above about 10%, no sharp cut-off; inactive means mostly below about 6.7%;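 further: stock transfer was 7.5 nL into about 10 µL; 0% = median of vehicle wells and 100% = median of positive control wells; one replicate is shown; the record names a cut of 25% in any replicate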
HNF4A DNA FP: change in binding of human HNF4 alpha to DNA; activity change, % at 10 µM; actives 0.3% (n = 360,000); AID 1224865; HNF4a-FITC DNA binding, fluorescence polarization, 1 h; in the data active means activity change above about 30%, passing the limit was not always enough;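 further: controls were the assay level and a saturating level of protein; the project sought stronger binding though the title names inhibitors; some compounds called inactive have numbers as strong as hits; positive values seem to mean higher polarization but the record does not say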
Target sequence (P41235 whole entry, looked up): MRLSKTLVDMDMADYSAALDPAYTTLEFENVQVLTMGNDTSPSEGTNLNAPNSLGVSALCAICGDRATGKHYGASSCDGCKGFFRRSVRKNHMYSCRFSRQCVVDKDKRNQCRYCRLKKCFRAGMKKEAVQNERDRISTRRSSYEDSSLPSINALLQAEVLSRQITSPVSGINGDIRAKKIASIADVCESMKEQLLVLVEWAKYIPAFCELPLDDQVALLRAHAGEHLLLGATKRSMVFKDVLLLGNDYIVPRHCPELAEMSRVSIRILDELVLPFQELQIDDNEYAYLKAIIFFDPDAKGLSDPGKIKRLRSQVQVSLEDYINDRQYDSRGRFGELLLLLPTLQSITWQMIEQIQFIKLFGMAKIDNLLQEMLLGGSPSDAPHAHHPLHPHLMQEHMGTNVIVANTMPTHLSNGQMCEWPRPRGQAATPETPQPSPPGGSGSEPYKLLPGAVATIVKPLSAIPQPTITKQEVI
ALR inh: inhibitors of human sulfhydryl oxidase ALR; P55789; purified ALR, DTT oxidation, H2O2 HRP-luminol luminescence; inhibition, % (no concentration beside the values); actives 3.8% (n = 290,000); AID 485317;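 active means mean and each replicate at 75% or more; inconclusive means only one of the two met; inactive means neither met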;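 further: stock transfer was 7.5 nL into about 7.5 µL; 0% = neutral wells and 100% = wells with inactivated enzyme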
Starred values were filed as active, the others as inactive; i = inactive; ? = inconclusive; . = not tested or not shown. This is a subset. The share of hits here may be higher or lower than overall.

SMILES	FGF22 binding	UCH37 inh	Beta2AR agonist	E coli growth	LANA-H2B inh	HNF4A DNA FP	ALR inh
NS(=O)(=O)c1ccc(NNC(=O)c2ccccc2C(=O)O)cc1	i	0.6	6	0.68	-1.1	1.9	36
CC[C@@]12C(=O)N(c3ccc(OC)cc3)C(=O)N1[C@H](c1ccc(Cl)cc1)[C@@H]1C(=O)N(C3CCCCC3)C(=O)[C@@H]12	i	4.5	6	.	0.9	-2.4	-3
CC(=O)N(Cc1ccc(Cl)cc1)c1cnccn1	i	-27	-1	0.67	2.2	1.3	.
COc1ccc(/C=N/NC(=O)c2ccc(CSc3nc(C)cc(C)n3)cc2)c(OC)c1OC	i	.	-13	.	4.0	-2.1	.
CC(C)OCCCn1c(SCC(=O)N2CCCC2=O)nc2ccccc2c1=O	i	4.3	3	0.67	-1.3	-0.9	3
Oc1cccc(NC(=S)N=Nc2c(O)[nH]c3ccc(Br)cc23)c1	i	5.6	25	0.62	1.6	3.4	99*
Cc1ccc(C)c(NC(=O)/C(C#N)=C/c2ccc[nH]2)c1	i	5.2	-9	0.73	2.8	1.2	-4
Cc1cccc2cc(C(c3nnnn3C(C)(C)C)N(Cc3ccco3)CC3CCCO3)c(=O)[nH]c12 (centres undefined)	.	5.5	5	0.73	8.2	-21	-21
O=C(O)c1ccc2oc(=O)c(S(=O)(=O)c3ccccc3)cc2c1	i	2.9	-5	0.68	0.9	-0.3	.
CN(C)C(CNC(=O)c1coc2ccccc2c1=O)c1ccccc1 (centres undefined)	i	2.8	2	0.65	-2.2	1.1	17
CN(CC(=O)Nc1cccc(F)c1)C(=O)c1cc(=O)[nH]c2ccccc12	i	-17	1	0.66	-12	-2.7	0
O=C(COC(=O)CNC(=O)c1ccco1)Nc1ccc(Cl)cn1	.	-0.2	-2	0.65	2.4	1.7	-13
COc1cc(C(=O)Nc2oc(-c3ccccc3)c(-c3ccccc3)c2C#N)cc(OC)c1OC	.	-22	7	0.68	4.8	-1.9	2
Cc1ccc(S(=O)(=O)N2CCOC2CNC(=O)C(=O)NCCN(C)C)cc1 (centres undefined)	i	2.3	-1	0.69	-2.1	1.3	-1
O=C1CSC(=S)N1c1ccccc1	i	1.2	-4	0.66	.	2.6	.
Cn1c(Cn2c(=O)sc3ccccc32)nnc1SCC(=O)NC1CCCC1	i	5.5	6	0.74	17*	2.2	.
CC(/C=C/c1ccc(O)cc1)=N/O	.	.	-9	.	-4.5	1.9	.
Cc1[nH][nH]c(=O)c1C(c1ccc([N+](=O)[O-])cc1)c1c(C)[nH][nH]c1=O	i	7.1	6	0.69	-0.2	0.4	44
COc1ccc(C(=O)Nc2nc(-c3ccccc3)c(C(C)=O)s2)c(OC)c1	i	-0.4	9	0.73	9.5	2.9	-2
O=C(CN1CCN(c2ccc(F)cc2)CC1)Nc1cccnc1Cl	i	7.0	-1	0.69	1.6	-2.3	60
Cn1c(SCC(=O)N2CCCCC2)nc2cccnc21	.	2.3	-2	0.72	-9.0	1.5	-2
Cc1ccc(/C=[N+](\[O-])c2ccccc2C)o1	i	0.5	3	0.7	-2.8	-3.6	-4
O=C(NCc1cccs1)C1CCN(S(=O)(=O)c2cccs2)CC1	.	1.4	-2	0.68	-6.6	-0.5	-1
COc1ccc(N2CCN(Cc3nc4scc(-c5ccccc5)c4c(=O)[nH]3)CC2)cc1	i	2.4	11	0.74	-5.5	6.8	3
COC(=O)[C@H](CCSC)NC(=O)Cn1cnc2c(SC)nc(N)nc21	i	0.6	-4	0.69	-5.4	-4.8	.
O=C1c2nc3cc(-c4ccco4)[nH]n3c(=O)c2CN1Cc1ccccc1	i	i	-5	0.65	-1.8	-14	15
O=C(Cn1nc(-c2ccccc2F)ccc1=O)Nc1ccc(S(=O)(=O)N2CCCCCC2)cc1	.	1.0	6	0.64	-18	-3.0	0
CS(=O)(=O)c1ccc(Cl)c(NC(=O)COc2ccc3c(c2)CCC3)c1	i	0.7	-7	0.65	.	0.2	.
Cc1cccc(C2CC3(CC(C)(C)NC(=S)N3)Oc3cc(O)ccc32)c1 (centres undefined)	i	1.7	-5	0.66	-6.5	-3.3	2
CCC(C)C(NC(N)=O)C(=O)Nc1ccc(OCc2ccccc2)cc1 (centres undefined)	i	0.3	-5	0.69	-1.5	0.3	-8
Cc1cc(C)c2c(c1)N[C@H](c1cccs1)[C@@H]1CCO[C@H]21	i	3.7	14	0.68	-3.3	0.0	56
CC(=O)Nc1ccccc1O	i	0.6	12	0.71	8.5	-2.1	.
COc1ccc(CC(=O)NNC(=O)c2ccco2)cc1OC	i	2.9	4	0.63	-8.6	1.1	.
COC(=O)c1ccc(OCC(O)CN2CCOCC2)cc1 (centres undefined)	i	3.2	2	0.68	3.5	-1.4	-6
CN(Cc1cnn(C)c1)C(=O)c1cc(COc2c(F)cccc2F)on1	i	0.2	0	0.68	0.4	3.1	0
Cc1ccc(CN2CCN(Cc3ccc(OC(C)C)cc3)CC2CCO)o1 (centres undefined)	i	3.2	-1	0.66	3.2	0.8	-7
Cc1ccc(F)cc1NC(=O)CSCc1nc2sc(C)c(C)c2c(=O)[nH]1	.	1.4	25	0.69	-4.2	2.8	97*
COc1cc2cc(C(=O)O)n(C)c2c(OC)c1OC	.	-11	-3	0.67	-2.8	1.4	0
O=C(/C=C/c1ccc(S(=O)(=O)N2CCOCC2)cc1)OCC(=O)c1ccc([N+](=O)[O-])cc1	i	1.0	7	0.72	0.3	2.3	-4
CCCC(NC(=O)C(C)NC(=O)CO/N=C1\C=C2CCC3C4CCC(C(C)=O)[C@@]4(C)CCC3[C@@]2(C)CC1)C(=O)O (some centres undefined)	i	.	-4	.	0.7	0.0	2
COc1ccc(CC2(CO)CCN(C(C)COc3ccccc3)CC2)cc1 (centres undefined)	i	-0.7	-1	0.74	3.5	-6.9	5
O=C(O)CC1S/C(=N/N=C/c2ccc([N+](=O)[O-])cc2)N(c2ccc(O)cc2)C1=O (centres undefined)	i	.	0	.	8.2	0.3	-5
Cc1ccn2c(=O)nc(SCC(=O)NCc3ccc4c(c3)OCO4)nc2c1	i	6.3	-1	0.66	-5.7	-1.2	-2
CCCN1C(=O)c2cccc3c(N4CCCCC4)ccc(c23)C1=O	.	-6.4	-60	0.69	13	8.2	-12
O=C(NCc1ccccc1F)C1CCN(C(=O)Nc2ccc(F)cc2)CC1	i	1.3	-5	0.71	4.7	2.9	-1

An excerpt from above in order of formula weight, highest first:
SMILES	FGF22 binding	UCH37 inh	Beta2AR agonist	E coli growth	LANA-H2B inh	HNF4A DNA FP	ALR inh
O=C(O)CC1S/C(=N/N=C/c2ccc([N+](=O)[O-])cc2)N(c2ccc(O)cc2)C1=O (centres undefined)	i	.	0	.	8.2	0.3	-5
Cc1ccc(CN2CCN(Cc3ccc(OC(C)C)cc3)CC2CCO)o1 (centres undefined)	i	3.2	-1	0.66	3.2	0.8	-7
COc1ccc(CC2(CO)CCN(C(C)COc3ccccc3)CC2)cc1 (centres undefined)	i	-0.7	-1	0.74	3.5	-6.9	5
CN(Cc1cnn(C)c1)C(=O)c1cc(COc2c(F)cccc2F)on1	i	0.2	0	0.68	0.4	3.1	0
CCCN1C(=O)c2cccc3c(N4CCCCC4)ccc(c23)C1=O	.	-6.4	-60	0.69	13	8.2	-12
COc1ccc(CC(=O)NNC(=O)c2ccco2)cc1OC	i	2.9	4	0.63	-8.6	1.1	.
COC(=O)c1ccc(OCC(O)CN2CCOCC2)cc1 (centres undefined)	i	3.2	2	0.68	3.5	-1.4	-6
Cc1cc(C)c2c(c1)N[C@H](c1cccs1)[C@@H]1CCO[C@H]21	i	3.7	14	0.68	-3.3	0.0	56
COc1cc2cc(C(=O)O)n(C)c2c(OC)c1OC	.	-11	-3	0.67	-2.8	1.4	0
CC(=O)Nc1ccccc1O	i	0.6	12	0.71	8.5	-2.1	.

Other compounds
SMILES	FGF22 binding	UCH37 inh	Beta2AR agonist	E coli growth	LANA-H2B inh	HNF4A DNA FP	ALR inh
CCN(CC(=O)Nc1ccc(OC)cc1)C(=O)c1ccccc1Sc1ccccc1C#N	i	-0.3	5	0.67	1.9	3.3	-9
O=C(NC(=S)N1CCOCC1)c1ccc(F)cc1	i	5.4	-2	0.7	-2.5	1.6	7
CCOc1ccc(NC(=O)CN(C)C(=O)c2ccc(OCC3CCCO3)cc2)cc1OCC (centres undefined)	i	-2.4	-4	0.68	-1.9	4.3	-7
O=c1[nH]nc(SCc2ccccc2)n1C1CC2C=CC1C2 (centres undefined)	i	4.4	4	0.66	6.4	-4.5	-6
O=C(CC1(CC2=NS(=O)(=O)c3ccccc3N2)CCCC1)NCCc1ccccc1	i	.	12	.	-5.4	1.7	3
CC1(c2ccccc2)NC(=O)N(CC(=O)NCC2CCCO2)C1=O (centres undefined)	i	2.4	3	0.68	5.5	2.1	1
O=C(CN1CCN(c2ccccn2)CC1)Nc1ccc(Br)cc1	i	3.6	0	0.68	-1.4	0.0	-8
COc1ccccc1-n1c(SCC(=O)Nc2ccc(Br)cc2)nc(O)cc1=O	i	-2.6	-4	0.68	-0.5	0.0	99*
CCCc1ncc(C(O)c2ccc(OC)cc2)n1C (centres undefined)	.	1.1	-3	0.67	1.5	2.4	-2
c1ccc(CCCN2CCOCC2)cc1	i	4.1	1	0.7	-1.8	0.6	2
CCOc1ccc(N(CC(=O)N2CCCCCC2)S(C)(=O)=O)cc1	i	1.3	-10	0.67	-2.4	0.9	-2
CCOC(=O)c1sc(NC(=O)CN2C(=O)NC3(CC(C)CC(C)(C)C3)C2=O)cc1C (centres undefined)	i	4.4	-4	0.7	.	0.8	.
O=C(CSc1nc2sc3c(c2c(=O)n1-c1ccccc1)CCCC3)N/N=C/c1ccccc1C(=O)O	.	.	-15	.	15	-1.1	-24
CCNC(=O)c1ccc(OCC(=O)Nc2ccc(F)cc2)c(OC)c1	i	5.4	-6	0.68	.	6.3	.
Cc1cccc(NC(=S)N2CCCCC2)c1	i	5.7	-8	0.69	-3.8	0.0	37
CC(C)(CCl)C(=O)Nc1ccc(C(F)(F)F)cc1	i	0.5	-12	0.67	-2.7	0.7	3
Cc1noc(COc2ccccc2OCC(N)=O)c1Cl	.	2.2	2	0.69	5.0	-3.5	-1
NS(=O)(=O)c1ccc(CCNC(=O)CSc2ccc(Cl)cc2)cc1	.	6.0	-1	0.69	-1.9	7.0	-12
COc1ccc(S(=O)(=O)N2CCCC2CNC(=O)C(=O)Nc2ccc(C)cc2)cc1 (centres undefined)	i	-3.7	1	0.65	-9.6	4.3	-1
Cc1ccc(CCC(=O)Nc2ccc(N(C)C)cc2)o1	i	.	-5	.	-0.3	-0.7	99*
CCOCC(=O)Nc1ncc(S(=O)(=O)c2ccc([N+](=O)[O-])cc2)s1	i	4.1	0	0.64	1.7	-1.1	-16
COc1cc(Cl)c(C)cc1NC(=O)COC(=O)C1CC1C (centres undefined)	i	4.4	-2	0.68	-1.9	0.7	-7
CC(C)c1cc(-c2cc(C(=O)Nc3ccccc3)on2)nc(NC2CCCC2)n1	i	-4.7	-4	0.72	0.9	1.1	-4
Cc1ccc(C(=O)NCCn2cc(SCC(=O)Nc3cc(C)on3)c3ccccc32)cc1	i	4.3	3	0.76	3.6	5.8	?
O=S1(=O)CCN2N=C(C34CC5CC(CC(C5)C3)C4)SC2=N1	i	3.9	-14	0.66	3.4	-3.5	34
Cn1cnc(S(=O)(=O)NC2CCN(Cc3ccccc3)CC2)c1	i	2.0	-6	0.67	-8.6	-1.9	-5
COC(=O)c1cc(S(=O)(=O)NCC(C)c2ccccc2)cn1C (centres undefined)	i	1.1	-3	0.61	-3.3	-1.9	1
O=C(NCC(c1ccco1)N1CCN(c2ccc(F)cc2)CC1)c1cccs1 (centres undefined)	i	5.2	-7	0.7	4.5	1.7	47

Screening results from PubChem BioAssay.
